KCNQ2 pot: enhances the rat KCNQ2 potassium channel | CHO-K1 KCNQ2, FluxOR thallium flux fluorescence; hits give high values | B-score at 10 µM | hit rate 0.54% among 310,000;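 active = fluorescence ratio B-score at least 3 SD of library B-scores, with initial fluorescence B-score within 3 SD, cut at about 5.3 in these data; same plate scores as AID 2156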;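 note: B-score of peak minus minimum over baseline fluorescence ratio after K+ and Tl+ stimulus; positive B-score means potentiation of KCNQ2 with more thallium influx and brighter signal; only the inactives scoring about 0 or higher are listed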
Target sequence (O88943 whole entry, looked up): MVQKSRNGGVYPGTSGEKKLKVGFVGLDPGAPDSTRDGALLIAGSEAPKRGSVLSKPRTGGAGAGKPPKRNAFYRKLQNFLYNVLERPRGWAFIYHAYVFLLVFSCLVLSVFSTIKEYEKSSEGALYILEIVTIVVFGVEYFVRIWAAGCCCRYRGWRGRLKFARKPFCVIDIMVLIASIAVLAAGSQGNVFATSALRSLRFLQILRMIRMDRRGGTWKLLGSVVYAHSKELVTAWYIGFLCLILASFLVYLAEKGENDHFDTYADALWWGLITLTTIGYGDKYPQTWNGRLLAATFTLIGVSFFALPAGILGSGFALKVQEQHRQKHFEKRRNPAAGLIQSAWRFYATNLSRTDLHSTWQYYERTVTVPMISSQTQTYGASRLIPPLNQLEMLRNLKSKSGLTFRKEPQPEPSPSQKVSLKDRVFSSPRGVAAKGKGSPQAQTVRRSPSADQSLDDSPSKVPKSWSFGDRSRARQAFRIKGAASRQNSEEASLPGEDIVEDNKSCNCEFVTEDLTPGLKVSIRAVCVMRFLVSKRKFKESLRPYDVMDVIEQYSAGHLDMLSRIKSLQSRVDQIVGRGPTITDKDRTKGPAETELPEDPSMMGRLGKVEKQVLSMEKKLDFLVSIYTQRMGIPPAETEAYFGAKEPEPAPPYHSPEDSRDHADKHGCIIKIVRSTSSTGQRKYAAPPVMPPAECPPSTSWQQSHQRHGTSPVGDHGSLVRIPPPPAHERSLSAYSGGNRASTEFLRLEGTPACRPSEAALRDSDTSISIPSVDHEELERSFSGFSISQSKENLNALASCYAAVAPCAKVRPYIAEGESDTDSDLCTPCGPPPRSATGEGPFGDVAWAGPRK
KCNQ2 pot baseline: also measured in KCNQ2 pot; calls as there; B-score; compound at 10 µM; measured here: initial fluorescence intensity artifact check;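 brightness before thallium and not channel activity; 0 = typical well and far values either way flag optical interference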
Numbers without * were called inactive. A portion of the library (hit frequency here may not be typical).

item	SMILES	KCNQ2 pot	KCNQ2 pot baseline
1	O=C1CC(NCc2cccs2)C(=O)N1c1ccc(Cl)cc1 (configuration not stated)	0.04	-0.44
2	CC(=O)Nc1ccc(S(=O)(=O)NCCSCc2ccco2)cc1	2.6	-0.47
3	COc1ccc(CC(=O)NNC(=O)CCc2ccccc2)cc1OC	0.35	0.13
4	Cc1nc2ccc(Cl)cn2c1C(=O)NN	0.92	0.06
5	C=CCOC(=O)C1=C(C)NC(SCC(=O)Nc2ccccc2)=C(C#N)C1c1ccco1 (configuration not stated)	0.84	-0.86
6	COc1cc(NC(=O)C(=O)NCCN2CCNCC2)c(OC)cc1Cl	0.25	-0.2
7	CCNc1nc(NC(C)CC)nc(ON=C(C)C)n1 (configuration not stated)	2	-2.6
8	O=C(Cc1ccc(O)cc1)NC1CCCCCC1	0.6	-2.5
9	O=C(CCC(=O)OCc1ccc(Br)cc1)Nc1ccccc1	0.72	-0.67
10	COc1ccc(N=C2SC(C(=O)O)CC(=O)N2Cc2ccc(OC)c(OC)c2)cc1 (configuration not stated)	0.01	1.2
11	CCn1cc(CN2CCC(n3nccc3NC(=O)Cc3ccccc3)CC2)cn1	1.7	0.88
12	CC(C)(C)c1ccc(C(=O)Cn2nc(C(=O)O)c3ccccc3c2=O)cc1	0.07	-0.41
13	NC(=O)C(=O)N/N=C/c1cccc(C(F)(F)F)c1	1.5	-0.66
14	COc1ccc(S(=O)(=O)N2CCCCC2)cc1NC(=O)c1ccccc1	1.1	0.27
15	Cc1nnc(NC(=O)C2CC(=O)N(C(C)c3ccccc3)C2)s1 (configuration not stated)	0.9	-0.24
16	CC1CCc2nc(NC(=O)CCSc3ccccc3)sc2C1 (configuration not stated)	0.23	0.22
17	O=c1c(-c2ccccc2)coc2c(CN3CCOCC3)c(O)ccc12	0.06	2.7
18	O=C1COc2ccccc2CN1	0.32	0.99
19	S=C(Nc1ccc(Cl)cc1)Nc1ccc2c(c1)OCCO2	0.39	0.3
20	COc1cccc(N(CC(=O)NCCSCc2ccco2)S(=O)(=O)c2ccccc2)c1	0.53	1.5
21	O=C(NCc1cccnc1)c1ccccc1-c1nc(-c2ccccc2)no1	1.7	-0.07
22	CNC(=O)C1CCC(=O)N1Cc1ccc(C)cc1 (configuration not stated)	0.1	0.58
23	COC(C(=O)Nc1ccc(C(C)=O)cc1)c1ccccc1 (configuration not stated)	0.74	0
24	CCOc1ccccc1NC(=O)N1C2CCCC1CC(NC(=O)C1CC1)C2 (configuration not stated)	0.39	1.1
25	COc1ccc(NC(=O)c2cc3c(Cl)nc4ccccc4c3s2)c(OC)c1	0.8	-0.92
26	O=C(CCNS(=O)(=O)c1ccc2[nH]c(=O)oc2c1)NCc1ccccc1	1.3	-2.5
27	CCCOC(=O)c1ccc(N2C(=O)c3ccccc3C2=O)cc1	0.03	-1.8
28	CN(C)c1ccc(Cl)cc1N	0.35	-0.03
29	N#C/C(=N\Nc1ccccc1)C(=N)N1CCCCCC1	0.72	1.4
30	O=C(c1ccccc1Cl)N1CCSCC1	1.6	-0.91
31	O=[N+]([O-])c1ccc(COc2ccc(-c3[nH]ncc3-c3ccc(Cl)cc3)c(O)c2)cc1	0.01	0.16
32	CN(C)/C=N/c1c(C#N)cnn1-c1ncnc2sc(-c3ccccc3)cc12	0.5	-0.39

Some of the entries so far, with each value named.
[15] Cc1nnc(NC(=O)C2CC(=O)N(C(C)c3ccccc3)C2)s1 (configuration not stated)
  KCNQ2 pot: 0.9	KCNQ2 pot baseline: -0.24
[16] CC1CCc2nc(NC(=O)CCSc3ccccc3)sc2C1 (configuration not stated)
  KCNQ2 pot: 0.23	KCNQ2 pot baseline: 0.22
[17] O=c1c(-c2ccccc2)coc2c(CN3CCOCC3)c(O)ccc12
  KCNQ2 pot: 0.06	KCNQ2 pot baseline: 2.7

Later entries
item	SMILES	KCNQ2 pot	KCNQ2 pot baseline
33	C=CCN(CC=C)C(=S)NC(=O)/C=C/c1ccc(C)cc1	1.1	0.16
34	COc1ccc(C[C@@H]2CN3C(=NC[C@@H]3C)N2CCNC(=O)c2ccc(C)c(Br)c2)cc1	0.57	1.7
35	CCCCCCOc1ccc(C(=O)O)cc1	0.92	-0.01
36	CCN(CC)S(=O)(=O)c1ccc(N2CCN(C)CC2)c(NC(=O)c2cc(=O)c3ccccc3o2)c1	0.74	0.9
37	COc1cccc2sc(N3CCN(C(=O)c4cccs4)CC3)nc12	1.6	-2.3
38	CCCCNC1CCS(=O)(=O)C1 (configuration not stated)	0.24	-0.65
39	COc1cccc(-c2cc(C(=O)NCCc3ccccc3)no2)c1	0.21	5.1
40	CCOC(=O)CC(=O)CSc1nc(C)nc2c1oc1ccccc12	0.78	-0.15
41	CNC(=O)c1cc2c(=O)n3cc(C)ccc3nc2n(C(C)C)c1=N	0.61	0
42	COc1ccc(OC)c(NS(=O)(=O)c2ccc(NC(=O)c3ccc(NS(C)(=O)=O)cc3)cc2)c1	1.1	-1.1
43	CNC(=S)Nc1ccccc1-c1ccccc1	0.79	-1.5
44	COc1cccc(COC(=O)CSCC(=O)Nc2cccc(C)c2)c1OC	0.09	-0.09
45	O=C(O)c1ccc(CNC(=O)C2CCCN2C(=O)OCc2ccccc2)cc1 (configuration not stated)	0.2	-0.01
46	COc1ccc(NC(=O)c2cccc(S(=O)(=O)N(C)c3ccccc3)c2)cn1	2.6	0.32
47	COc1ccc(C2C(C(C)=O)=C(O)C(=O)N2c2cccnc2)c(OC)c1 (configuration not stated)	0.9	-0.14
48	O=C(Cc1ccccc1[N+](=O)[O-])N1CCN(S(=O)(=O)c2ccccc2)CC1	0.63	2

Single records, from the list above. Screens in order: KCNQ2 pot | KCNQ2 pot baseline
CCCOC(=O)c1ccc(N2C(=O)c3ccccc3C2=O)cc1 is listed with 0.03 | -1.8
CCn1cc(CN2CCC(n3nccc3NC(=O)Cc3ccccc3)CC2)cn1 is listed with 1.7 | 0.88
CN(C)/C=N/c1c(C#N)cnn1-c1ncnc2sc(-c3ccccc3)cc12 is listed with 0.5 | -0.39
CC1CCc2nc(NC(=O)CCSc3ccccc3)sc2C1 (configuration not stated) is listed with 0.23 | 0.22
COc1cc(NC(=O)C(=O)NCCN2CCNCC2)c(OC)cc1Cl is listed with 0.25 | -0.2

The results go on:
item	SMILES	KCNQ2 pot	KCNQ2 pot baseline
49	O=C(c1ccccc1Br)N1CCC(c2nc3ccccc3s2)CC1	0.04	-1.4
50	O=C(N/N=C/c1cccnc1)c1ccccc1Cl	0.91	0.04
51	COc1cc(OC)cc(C(=O)NNC(=O)NC2CCCCC2)c1	0.3	1.6
52	CN1CCN(c2ccc(S(=O)(=O)N3CCOCC3)cc2NC(=O)CCc2ccccc2)CC1	0.49	-0.18
53	COc1cccc(CNC(=O)C2(C)Oc3ccccc3NC2=O)c1 (configuration not stated)	0.29	-0.81
54	CCC(C)NC(=O)c1ccccc1NC(=O)C1COc2ccccc2O1 (configuration not stated)	0.7	1.6
55	O=C(NNC(=O)c1oc2ccccc2c1-n1cccc1)c1ccco1	2.2	-0.01
56	CC(=O)c1ccccc1NC(=O)c1ccc(N2CCCC2=O)cc1	1.3	0.6
57	CCOc1cccc2c1OC1(C)CC2NC(=O)N1c1cccc(C(=O)N2CCN(c3ccccn3)CC2)c1 (configuration not stated)	0.74	0.83
58	O=C(O)COc1ccc(/C=N/Nc2nc(Nc3ccccc3)nc(N3CCCCC3)n2)cc1	1.6	0.18
59	Cc1nc2ccc(Br)cn2c(=O)c1Cl	0.02	-1.4
60	COc1ccc(CNC(=O)CSc2nnc3c(n2)[nH]c2ccc(OC)cc23)cc1	0.12	1.2
61	COC(=O)c1ccccc1NC(=O)c1ccccc1OC	0.01	-0.51
62	CCn1nc(C(=O)Nc2ccc3nc(C)sc3c2)c2ccccc2c1=O	1.2	-0.96
63	O=C(O)c1cccnc1NC1CCCC1	1.3	0.98
64	CCC(C)NC(=O)[C@@H]1CSC2c3ccccc3C(=O)N21 (some centres not stated)	0.33	0.14
65	O=C(Nc1ccc(Cl)cn1)Nc1ccccc1Cl	0.02	-0.29
66	Cc1cc(Cl)ccc1C(=O)C1CCCN(C(=O)/C=C/c2cnn(C)c2)C1 (configuration not stated)	0.59	-1.4
67	c1ccc(CCNc2nc3ccccc3n3nnnc23)cc1	0.06	0.46
68	Cc1c(-c2ccc(Cl)cc2)oc(=O)c2c(N)n(-c3ccccc3)nc12	0.83	0.01
69	O=C1NCCCC1C(=O)N1CCN(C(c2ccccc2)c2ccccc2)CC1 (configuration not stated)	2.2	-1.7
70	CC(C)C(NC(=O)c1ccc(C(C)(C)C)cc1)C(=O)NC1=NCCS1 (configuration not stated)	0.1	1.5
71	Cc1ccc(NC(=O)c2c(C)nc3ccccn23)cc1C	0.02	0.5
72	COc1ccc(-n2nc3cc(C)c(NC(=O)C(C)C)cc3n2)cc1	0.44	0.23
73	Cc1cc(NC(=O)c2cccc(Br)c2)no1	0.5	0.05
74	CC1Cc2cc(C3(O)C(=O)c4ccccc4C3=O)ccc2N1 (configuration not stated)	0.89	0.17
75	COc1ccc(NC(=S)NC(C)Cc2cccs2)cc1 (configuration not stated)	1.1	-0.61
76	O=c1[nH]ncc(NCc2ccc(Cl)cc2)c1Cl	1.2	-0.44
77	O=C(c1cnc(Cl)c(Cl)c1)N1CCN(S(=O)(=O)c2ccc(F)cc2)CC1	1.9	-0.05
78	O=C(Nc1ccccc1)NC1(C(=O)N2CCC(O)CC2)CCCCC1	0.8	0.55
79	Cc1c(C(=O)NCCN2C(=O)S/C(=C\c3cccnc3)C2=O)cccc1[N+](=O)[O-]	1.1	-0.94
80	O=C(Cc1ccc(Br)cc1)c1ccc(O)cc1O	1.1	-0.69
81	COc1cc(NC(=O)CN2CCC(Cc3ccccc3)CC2)c(C)cc1[N+](=O)[O-]	1.2	0.94
82	COc1ccc(OC)c(S(=O)(=O)N2CCC(C(=O)NCc3ccccc3OC)CC2)c1	0.03	-1.3
83	CC(C)N=Cc1c(O)[nH]c2ccccc12	0.64	-0.45
84	CCC(C)NC(=O)C1(O)c2ccccc2NC(=O)N1c1ccc(C)c(C)c1 (configuration not stated)	0.59	0.18
85	Cc1ccc(OCC(=O)N/N=C/c2ccccc2)c([N+](=O)[O-])c1	0.94	0.15
86	Cc1nc2c3ccccc3nc(NNC(=O)CCC(=O)N3CCC(C)CC3)n2n1	0.4	-0.02
87	CS(=O)(=O)N(CC(=O)N1CCCC1)c1ccccc1Br	1.2	-0.2
88	CCCCOC(=O)CCCc1ccc([N+](=O)[O-])cc1[N+](=O)[O-]	0.07	-1.9
89	COc1ccc(CCNC(=O)C(C(=O)c2ccccc2)n2cc(Cl)ccc2=O)cc1OC (configuration not stated)	0.73	-0.43
90	O=C(O)CSc1cnc2ccccc2n1	2.4	-0.5
91	S=C(NCCc1ccccc1)N1CCn2cccc2C1c1cccnc1 (configuration not stated)	0.15	0.4
92	CCCCNC(=O)C(=O)N/N=C/c1cccc(Br)c1	0.43	2
93	COC(=O)c1cn(-c2nc(C)c3c(n2)CCC3)nn1	1.3	0.18
94	O=C(NC(=S)Nc1ccccn1)c1cccc([N+](=O)[O-])c1	0.7	-1.4
95	O=C(Nc1nc2ccc(S(=O)(=O)N3CCCC3)cc2s1)C1CCCO1 (configuration not stated)	0.93	0.04
96	Cc1ccccc1CSc1nnc(-c2cccnc2)n1N	0.69	0.54
97	O=C1CCCC(O)=C1N=Nc1cccc(S(=O)(=O)N2CCOCC2)c1	0.04	0.24
98	CS(=O)(=O)N(Cc1cccc(CN(C(C(=O)O)c2ccccc2)S(C)(=O)=O)c1)C(C(=O)O)c1ccccc1 (configuration not stated)	0.35	2.1
99	Cc1cc(N2C(=O)C(O)=C(C(=O)c3ccco3)C2c2cccnc2)no1 (configuration not stated)	0.49	0.23
100	CCCCCn1c(=O)[nH]c2cc(C(=O)NCCCN3CCCCC3)ccc2c1=O	1.2	-0.57
101	Cc1ccc(NC(=O)CN(C)S(=O)(=O)c2cccc3nsnc23)cc1C	0.87	-0.57
102	O=C(NCCCN1CCOCC1)c1cc2ccccc2o1	0.47	0.27
103	COc1ccc(NC(=O)CSc2ccc3nnc(-c4ccccn4)n3n2)cc1OC	0.66	0.05
104	COc1ccc(NS(=O)(=O)c2ccc(NC(C)=O)cc2)nn1	0.05	0.44

(further entries)
item	SMILES	KCNQ2 pot	KCNQ2 pot baseline
105	O=C(O)/C(=C\c1cccc([N+](=O)[O-])c1)c1ccc(S(=O)(=O)N2CCCCC2)s1	0.24	1.2
106	COc1ccc(C(=O)Oc2ccc(/C=N/NC(=O)c3ccccc3OC)cc2[N+](=O)[O-])cc1	0.88	-2
107	CC1=C(C(=O)Nc2ccccc2C(=O)NCCCOC(C)C)SCCO1	0.47	0.4
108	N#Cc1cc([N+](=O)[O-])cnc1N(CCO)CCO	0.33	-2.5
109	COn1c(-c2ccc(C)cc2)nc2ncccc21	0.3	1.4
110	COc1ccc(NC(=O)c2ccc3nc[nH]c3c2)cc1	0.81	0.64
111	COc1ccccc1NCCC(=O)OCC(=O)NC1CCCC(C)C1C (configuration not stated)	0.03	2.4
112	C[N+]1(CC(=O)OCCCC2CCCCC2)CCCC1	0.57	-0.3

Compounds listed so far containing a tert-butyl group, in the order listed:
item	SMILES	KCNQ2 pot	KCNQ2 pot baseline
12	CC(C)(C)c1ccc(C(=O)Cn2nc(C(=O)O)c3ccccc3c2=O)cc1	0.07	-0.41
70	CC(C)C(NC(=O)c1ccc(C(C)(C)C)cc1)C(=O)NC1=NCCS1 (configuration not stated)	0.1	1.5

Other records follow:
item	SMILES	KCNQ2 pot	KCNQ2 pot baseline
113	CC1CC(=O)C2=C(C1)Nc1ccccc1N=C2 (configuration not stated)	0.88	0.89
114	COCCCNCCOCCOc1ccc(C)cc1[N+](=O)[O-]	1.1	0.1
115	CC(Nc1nc(N2CCN(CCO)CC2)nc2ccccc12)c1ccccc1 (configuration not stated)	0.94	1.4
116	CC(=O)Nc1ccc(NC(=O)CSc2nnc(-c3ccco3)o2)cc1	0.3	0.8
117	COc1ccc2cc(C(=O)C3CCCN(C(=O)C4=NN(C)C(=O)CC4)C3)ccc2c1 (configuration not stated)	0.43	1.9
118	COc1ccc(CCNC(=O)COc2nncc3ccccc23)cc1	0.14	-0.31
